# Anaer choline gr: choline-fed anaerobic bacterial growth inhibition | AID 1963822 | Gram-negative bacterium anaerobic choline minimal medium, absorbance growth; active compounds read low; many inactives read as strong as hits in the columns shown | calls only | 55,000 compounds, 0.2% hits;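 active = growth z-score on choline under -2 at 7 or 20 h with little or no fall on glycerol, limits in tiers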;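 also: stock transfer was 300 nL into about 50 µL; the organism is E. coli; final concentration not given here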
# Anaer choline gr early: recorded beside Anaer choline gr, whose call it bears; z-score; measured here: choline growth z-score, timepoint 1;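 score of optical density at 7 h as mean of two plates; lower means less growth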
# An asterisk follows results filed as active; i = inactive.
SMILES	Anaer choline gr	Anaer choline gr early
CN(CC#N)C(=O)c1ccc2c(c1)CCN2C(=O)C1CC1	i	0.23
Cc1ccc2oc(N3CCN(C(=O)c4ccc(-c5noc(C(C)C)n5)cc4)CC3)nc2n1	i	0.19
Cc1ccc(-c2nc(CSc3nc4c(c(=O)[nH]3)CCCC4)c(C)o2)cc1	i	0.19
O=C(c1ccc2c(=O)n3c(nc2c1)CCCC3)N1CCN(c2ccccn2)CC1	i	-0.33
Cc1ccccc1C(=O)NCCc1nc(-c2ccccc2)no1	i	-1.3
Cc1sc(C)c(S(=O)(=O)NCc2ccc(F)cc2)c1-c1cc(C(F)(F)F)on1	i	0.19
O=C(NCCN1CCOCC1)c1csc(Nc2ccccc2)n1	i	-0.09
CCCNC(=O)c1ccc2c(=O)n(Cc3ccccc3)c(SCC(=O)c3ccc(OC)cc3)nc2c1	i	0.59
Cc1oc(-c2cccc(Br)c2)nc1Cn1nc(C)c2c(C)onc2c1=O	i	0.8
Cc1cc(NS(=O)(=O)c2c(C)nc3sc4ccccc4n3c2=O)ccc1Br	i	-0.08
Cc1ccc(Nc2ncc(C(=O)Nc3cnc4ccccc4c3)c3ccccc23)cc1Cl	i	0.72
CCOc1ccc(N2C(=O)c3cc(C(C)(C)C)nn3CC2(C)C(=O)NC2CCCCC2)cc1 (stereo not given)	i	1.9

# New compounds follow
SMILES	Anaer choline gr	Anaer choline gr early
CCOc1ccc(NC(=O)Nc2ccc(CCc3nc4ccccc4[nH]3)cc2)cc1	i	2
Cn1c(=O)c2c(-c3ccc(Br)cc3)c(NCc3ccccc3)oc2n(C)c1=O	i	-1.1
Cc1[nH]c(C(=O)Nc2cccc(Cl)c2)c(C)c1S(=O)(=O)N1CCCC1	i	-0.09
CCOC(=O)c1c(NC(=O)c2ccc3c(c2)CC(c2ccccc2)OC3=O)sc2c1CCC(C)C2 (stereo not given)	i	-0.66
CCN(CC)S(=O)(=O)c1ccc2c(c1)c(=O)c(C(=O)O)cn2C	i	-0.02
CC1CC(=O)c2cnc(NCC3CCCO3)nc2C1 (stereo not given)	i	-0.54
CCN(CC)S(=O)(=O)c1cc(-c2nc(C(C)C)cs2)sc1C	i	0.29
Cc1ccc(CCNC(=O)C2CCN(C(=O)c3sccc3-n3cccc3)CC2)cc1	i	0.68
CCc1c(C)nc2nc(-c3ccccc3)nn2c1NCc1ccc(C)cc1	i	0.79
CC(C)CSc1nn(C)c2nc3c(c(=O)n12)C(C)(C)Cc1ccccc1-3	i	-0.98
O=C(NC1CC1)C1CCCN(C(=O)C2CC2)C1 (stereo not given)	i	-0.11
O=c1ccc(-c2cccc(Cl)c2)nn1CCc1nc(-c2ccc(F)cc2)no1	i	1.4

# Later entries:
SMILES	Anaer choline gr	Anaer choline gr early
Cc1ccc(NC(=O)Nc2ccccc2OCc2cc(=O)n3cccc(C)c3n2)cc1C	i	-0.62
O=c1c2c(-c3ccc(Cl)cc3)csc2ncn1CC1CCCO1 (stereo not given)	i	-0.14
O=C1C(c2ccccc2)=C(NC2CCN(Cc3ccccc3)CC2)c2ccccc21	i	0.83
CC1(C(=O)NC2CCCCC2)Cn2c(cc3occc32)C(=O)N1CCCN1CCOCC1 (stereo not given)	i	-0.36
CCc1onc(C)c1C1CCCN1Cc1cn[nH]c1-c1cc(OC)ccc1OC (stereo not given)	i	-0.26
CCOc1ccc(CC(=O)NCC(c2ccc3c(c2)CCCN3C)N2CCCC2)cc1 (stereo not given)	i	-0.06
Cn1c(=O)c2cc(C(=O)N3CCN(c4ccccn4)CC3)sc2n(C)c1=O	i	0.24
O=S(=O)(c1cccc(Cl)c1)N1CCC2(CC1)Nc1ccc(Cl)cc1-n1cccc12	i	0.27
COc1ccccc1Oc1cc(-c2cccc(C(=O)Nc3cccc(C)c3)c2)ncn1	i	0.73
O=C(Nc1ccc(F)cc1F)N1CCC(n2cnc3ccc(Cl)cc3c2=O)CC1	i	0.32
CN1C(=O)C(C)(C)c2cc(S(=O)(=O)N3CCC(CCN4CCOCC4)CC3)ccc21	i	-0.86
CCCSc1nc2c(c(=O)[nH]1)C(c1ccc(Cl)cc1)C(C(=O)OC)=C(C)N2 (stereo not given)	i	0.77

# The list continues:
SMILES	Anaer choline gr	Anaer choline gr early
O=C(c1cccn2c(-c3ccc(F)cc3)nnc12)N1CCC(O)(c2ccc(Cl)cc2)CC1	i	0.38
Cc1cn2c(=O)cc(COc3ccc(Cl)cc3NC(=O)C3CCCCC3)nc2s1	i	0.21
CCc1cc(-c2csc(S(=O)(=O)NCCCN3CCN(c4ccccc4)CC3)c2)on1	i	-0.25
Cc1nn(C)c2nc(OC(C)C(=O)N3CCCC3)cc(C(F)(F)F)c12 (stereo not given)	i	1.4
O=C(C1=C(Nc2ccc3c(c2)OCO3)c2ccccc2S1(=O)=O)N1CCOCC1	i	0.49
O=C(Cc1csc(NC(=O)c2ccccc2)n1)NCCCc1ccccc1	i	0.31
CCOC(=O)c1nc(NCc2cc(Br)ccc2OC)c2c(CC)noc2n1	i	0.52
O=S(=O)(c1cccn2c(SCc3ccc(F)cc3Cl)nnc12)N1CCCCC1	i	-0.23
CCCN(CCC)S(=O)(=O)c1ccc2c(c1)N(CC(=O)OC)C(=O)CS2	i	-0.46
Cc1c(CN2CCCC(c3nncn3-c3ccccc3)C2)cnn1C (stereo not given)	i	0.96
Cc1onc(-c2cccnc2)c1C(=O)N1CCN(c2ncccn2)CC1	i	-0.47
O=C(NCCc1nc2cccnc2n1-c1ccccc1)Nc1ccc2c(c1)OCCO2	i	0.08

# (list continues)
SMILES	Anaer choline gr	Anaer choline gr early
CC(C)NC(=O)Cn1cnc2c(sc3ncccc32)c1=O	i	0.5
CCCCNC(=O)C1CCN(c2cc(-c3ccc(F)cc3)ncn2)CC1	i	0.36
O=C(c1cc(-c2cccnc2)n(-c2ccc(F)cc2)n1)N1CCC(N2CCCCC2)CC1	i	-0.62
CCOC(=O)c1c(C)[nH]c(C(=O)N2CCC(C(C)C(=O)NCc3ccccc3C)CC2)c1C (stereo not given)	i	-0.44
CN(CC(=O)N1CCc2ccccc2C1)S(=O)(=O)c1ccc2nc(-c3ccccc3)[nH]c2c1	i	-0.89
Cn1c(=S)[nH]c2cc(-c3ccccc3)sc2c1=O	i	0.47
CCC(C)(C)NC(=O)c1cccc(-c2ccc(S(=O)(=O)N3CCCC3)cc2)c1	i	0.37
c1ccc(-c2noc(-c3ccccn3)n2)cc1	i	-2.1
C=CCn1c(=O)c(=O)n(Cc2ccc(C(=O)NC3CCS(=O)(=O)C3)cc2)c2ccccc21 (stereo not given)	i	-0.88
CCOc1ccc(-c2nc(CSc3nc(C(F)(F)F)cc(=O)[nH]3)c(C)o2)cc1	i	-0.32
CCC(C)(C)NS(=O)(=O)c1cc(-c2nc(C)c(C)s2)sc1C	i	1.4
COc1ccc(NC(=O)c2ccc(Oc3nccnc3Oc3ccc(C)cc3)cc2)c(OC)c1	i	0.49

# Following part:
SMILES	Anaer choline gr	Anaer choline gr early
COc1ccc(OC)c(NC(=O)CSc2nc(NCc3ccccc3)c3ccccc3n2)c1	i	-0.87
CCOc1ccc(NC(=O)Nc2cc(F)c3[nH]c(=O)ccc3c2)cc1	i	-0.37
O=C(Nc1cnn(CC(=O)N2CCOCC2)c1)c1cc(-c2ccc(F)cc2)no1	i	0.17
Cc1ccc(Cc2nc(CCNS(=O)(=O)c3cc(C)cc(C)c3)n[nH]2)cc1	i	0.67
COCC(=O)N1CC(=O)Nc2ccccc21	i	0.15
CNc1cc(C)nc2c(-c3ccc(F)cc3)c(C(F)(F)F)nn12	i	0.37
O=S(=O)(c1ccc(Nc2cc(-c3ccccc3)ncn2)cc1)N1CCCC1	i	0.22
Cc1ccc(CNC(=O)Cn2cnc3c(-c4ccccc4)csc3c2=O)cc1	i	0.01
O=C(Nc1cccc(-c2cn3cccnc3n2)c1)c1ccccc1F	i	-2.2
O=C(NC(=NCc1ccncc1)Nc1ccccc1)c1ccccc1	i	-0.27
COc1ccc(-c2[nH]ncc2CN2CCN(C(=O)c3[nH]nc4c3CCc3cc(OC)ccc3-4)CC2)cc1	i	0.75
COC(=O)C1=COC(OC2OC(CO)C(O)C(O)C2O)[C@H]2C(CO)=CC[C@H]12 (stereo not given in full)	i	-0.09

# Ordered by heavy-atom count (low to high): some entries from above
SMILES	Anaer choline gr	Anaer choline gr early
COCC(=O)N1CC(=O)Nc2ccccc21	i	0.15
O=C(Nc1cccc(-c2cn3cccnc3n2)c1)c1ccccc1F	i	-2.2
Cc1ccc(Cc2nc(CCNS(=O)(=O)c3cc(C)cc(C)c3)n[nH]2)cc1	i	0.67
Cc1ccc(CNC(=O)Cn2cnc3c(-c4ccccc4)csc3c2=O)cc1	i	0.01
COc1ccc(OC)c(NC(=O)CSc2nc(NCc3ccccc3)c3ccccc3n2)c1	i	-0.87

# New compounds follow:
SMILES	Anaer choline gr	Anaer choline gr early
CCN(CC)c1ncc(C(=O)O)cc1NS(=O)(=O)c1cc(C)cc(C)c1	i	0.44
CN(C)CCn1c2ccccc2n2cc(-c3ccc4c(c3)OCO4)nc12	i	0.97
Cc1cc(C)nc(NC(c2ccsc2)c2cc(C)sc2NC(=O)c2ccccc2)n1 (stereo not given)	i	2
CCOc1ccc(CCNC(=O)c2noc3nc(C)nc(N4CCCCC4)c23)cc1OCC	i	-0.81
CCOc1ccc(CN2C(=O)c3ccccc3CC2(C)C(=O)NCc2ccccc2OC)cc1 (stereo not given)	i	0.02
Cc1ccc(NC(=O)N2CCCC2c2nnc(C(=O)Nc3cccc(F)c3)s2)cc1Cl (stereo not given)	i	0.74
COc1ccccc1CNC(=O)C1c2c(C)nn(-c3ccccc3)c2SCC(=O)N1Cc1ccc(F)cc1 (stereo not given)	i	1.6
CCn1c(Cn2cccn2)nc2cc(NC(=O)CC(C)C)ccc21	i	-0.59
Cc1ccc(C)c(NC(=O)Cn2c(=O)n(Cc3nc(C)no3)c(=O)c3cc4c(cc32)OCO4)c1	i	0.5
CCOC(=O)c1cc(S(=O)(=O)NC(C)C)c(C)n1C	i	-0.23
COc1ccc(OC)c(CNC(=O)c2ccc(-c3cnc(N4CCCCC4)nc3)cc2)c1	i	-1.6
COc1ccc(N2CCN(S(=O)(=O)c3cc(-c4nnc(C5CCC5)o4)co3)CC2)cc1	i	0.11

# Continued:
SMILES	Anaer choline gr	Anaer choline gr early
c1cncc(-c2nnc3sc(-c4cc5ccccc5o4)nn23)c1	i	0.84
CCCn1c(=O)c2ccccc2n2c(SCC(=O)NCc3ccc(C)cc3)nnc12	i	0.77
COCCOC(=O)C1=C(C)NC(=O)NC1c1cn(-c2ccccc2)nc1-c1ccc(OC)cc1 (stereo not given)	i	-0.31
CCC(=O)NC1CCN(C(=O)C2CCC2)C1 (stereo not given)	i	0.3
COC(=O)c1ccccc1NC(=O)C1=CC(c2ccc(C)cc2)=NS(=O)(=O)N1C	i	1.3
CCc1cccc(C)c1NC(=O)CSc1ncnc2nc(N3CCC(C)CC3)sc12	i	0.7
Cc1sc(-c2nnc(C3CC3)o2)cc1NC(=O)c1n[nH]c2c1CCCC2	i	-0.57
O=C(OCC1CCCO1)c1cnn2c(C(F)(F)F)cc(-c3ccccc3)nc12 (stereo not given)	i	0.41
COc1ccc(Cl)cc1NC(=O)NCCCn1c(-c2ccncc2)nc2cccnc21	i	-1.4
CCOC(=O)C1CCN(c2c(NC(C)CC)c(=O)c2=O)CC1 (stereo not given)	i	0.13
O=C(Nc1ccc2c(c1)OCO2)c1nnc(C2CCN(C(=O)C3CCCCC3)CC2)s1	i	0.38
O=c1c2cn[nH]c2nc(SCc2nc(-c3ccc(Cl)c(F)c3)no2)n1-c1ccccc1	i	0.82

# New compounds follow
SMILES	Anaer choline gr	Anaer choline gr early
Cc1cc(-c2ccc(C)c(S(=O)(=O)Nc3ccc(Cl)cc3)c2)n[nH]1	i	-0.4
COc1ccc(NC(=O)CSc2nnc(-c3cc4ccccc4o3)n2-c2ccccc2)cc1	i	1.1
Cn1cc(S(=O)(=O)N2CCOCC2)cc1C(=O)N1CCN(c2ccc(F)cc2)CC1	i	-0.69
CCNc1cc(C)nc(N2CCN(C(=O)c3ccccc3)CC2)n1	i	0.02
C=CCOC(Cn1ccnc1)c1ccc(Cl)cc1Cl (stereo not given)	i	-0.62
CCOC(=O)C1CCC(CNC(=O)N2CCC3(CC2)Nc2cc(OC)ccc2-n2cccc23)CC1 (stereo not given)	i	1
Cc1cccc(C)c1NC(=O)c1c(C)oc2ccc(OCc3ccccc3)cc12	i	1.6
CCOc1ccc(CC(=O)Nc2c(C)nc3scc(CC)n3c2=O)cc1OCC	i	0.72
O=C(CN1CCn2nc(-c3ccccc3)cc2C1=O)NCc1cccnc1	i	-0.33
Cc1cc2c(cc1S(=O)(=O)N1CCCC(C(=O)N(C)Cc3ccccc3)C1)OCC(=O)N2 (stereo not given)	i	-0.08
COc1cc2c(cc1OC)C(C(=O)O)C(c1cccc(OC)c1OC)N(C)C2=O (stereo not given)	i	-0.1
CNS(=O)(=O)c1cc(CN2C(=O)C3CCCCC3C2=O)ccc1C (stereo not given)	i	-1.9

# One compound at a time, from the list above. Order of screens: Anaer choline gr	Anaer choline gr early
# Shown for `Cc1cc2c(cc1S(=O)(=O)N1CCCC(C(=O)N(C)Cc3ccccc3)C1)OCC(=O)N2` (stereo not given) → i	-0.08
# Shown for `CCNc1cc(C)nc(N2CCN(C(=O)c3ccccc3)CC2)n1` → i	0.02
# Shown for `COc1cc2c(cc1OC)C(C(=O)O)C(c1cccc(OC)c1OC)N(C)C2=O` (stereo not given) → i	-0.1
# Shown for `COc1ccc(NC(=O)CSc2nnc(-c3cc4ccccc4o3)n2-c2ccccc2)cc1` → i	1.1
# Shown for `Cc1cccc(C)c1NC(=O)c1c(C)oc2ccc(OCc3ccccc3)cc12` → i	1.6

# Screening results from PubChem.

# This is a subset. The share of hits here may be higher or lower than overall.
